Source: PubChem BioAssay (National Center for Advancing Translational Sciences (NCATS))
TRPML1 blocker: qHTS for Inhibitors of the Human Mucolipin Transient Receptor Potential 1 (TRPML1); Mucolipin-1 (Homo sapiens), Q9GZU1; TRPML1-inducible cells, Ca2+ dye fluorescence, FDSS; stronger effect = lower value; inhibition of EC80 agonist-evoked calcium signal; activity change, negative = inhibition, % (test concentration not listed); hit rate 0.02% among 390,000; AID 624415, 2012; in the data active means activity change below about -50%; inconclusive means about -30% to -50%; inactive means above about -30%;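 also: stimulus is agonist 54-4 at its EC80 concentration; % is scaled to controls: 0 for no effect and ±100 for the full control effect; compound concentration not given in the record; the text of the record puts the active cut at -80%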
Target sequence (Q9GZU1 whole entry, looked up): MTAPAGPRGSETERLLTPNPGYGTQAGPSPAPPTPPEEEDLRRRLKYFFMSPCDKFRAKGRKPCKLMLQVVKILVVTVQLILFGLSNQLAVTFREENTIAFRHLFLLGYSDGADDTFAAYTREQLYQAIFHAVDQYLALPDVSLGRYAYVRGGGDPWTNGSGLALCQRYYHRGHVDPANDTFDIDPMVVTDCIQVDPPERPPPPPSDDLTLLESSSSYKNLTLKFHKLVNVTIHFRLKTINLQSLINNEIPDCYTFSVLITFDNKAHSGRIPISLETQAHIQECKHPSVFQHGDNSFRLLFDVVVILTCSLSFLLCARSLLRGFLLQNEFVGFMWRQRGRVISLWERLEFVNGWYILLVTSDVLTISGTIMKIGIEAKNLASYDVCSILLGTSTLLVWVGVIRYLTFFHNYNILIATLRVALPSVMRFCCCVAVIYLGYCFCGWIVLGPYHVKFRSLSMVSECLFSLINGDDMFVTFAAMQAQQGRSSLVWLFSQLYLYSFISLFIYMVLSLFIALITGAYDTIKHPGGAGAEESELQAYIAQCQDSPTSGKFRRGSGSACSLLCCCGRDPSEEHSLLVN
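TRPML1-DL cells, Tet-induced overnight (~16 h, 37 °C) at 1,500 cells/well, were loaded with Ca8 no-wash dye plus quencher for 45-90 min at room temperature. Compounds were pinned during FDSS kinetic reading; agonist 54-4 at EC80 (4 uM final) then added.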
Sfp inh: qHTS Assay for Inhibitors of Bacillus subtilis Sfp phosphopantetheinyl transferase (PPTase); hit rate 3.5% among 310,000; 4'-phosphopantetheinyl transferase ffp (Bacillus subtilis), Q9F4F7; Potency, µM, for inactives: max response, negative = inhibition, most hits filed as inhibitors; Biochemical Sfp PPTase activity, qHTS; active = well fitted inhibition curve with a large enough effect; inconclusive = small, poorly fitted or top-dose-only effect, or another doubt; inactive = no such curve, though single readings can be large or run the other way;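 also: the enzyme is Sfp with the accession as filed and its product quenches rhodamine fluorescence; potency is read from the fitted curve at half-maximal effect; 0% = enzyme reaction without inhibitor and -100% = no enzyme wells; top concentration of the series not given in the record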
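With Hepes-Na pH 7.6 buffer containing 10 mM MgCl2, Sfp (15 nM) modified BHQ-2-YbbR (12.5 uM) using rhodamine-CoA (5 uM). Two reads 30 minutes apart at 525/598 nm yielded each well's rate.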
TRPV1 potentiator: HTS Assay for Compounds that Act as Potentiators of the Vanilloid Receptor 1. Transient receptor potential cation channel subfamily V member 1 (Homo sapiens), Q8NER1. TRPV1-expressing cells, Fluo-8 calcium influx, capsaicin EC20 potentiation; host cell line not named in the record; control for the full effect not named in the record. potentiation, % at 8.33 µM. hit rate 0.02% among 320,000; active means potentiation above 80%; inconclusive means 30% to 80%; inactive means below 30%; also: 0% is about no effect
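Fluo-8 calcium influx in TRPV1-expressing cells, kinetic read (ex 480/em 520 nm). Compound added and read 3 min for agonist activity, followed by capsaicin at EC20 final and 2 min further read for enhancement.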
gsp antag: qHTS for Antagonists of gsp, the Etiologic Mutation Responsible for Fibrous Dysplasia/McCune-Albright Syndrome: qHTS | gsp-mutant cells, cAMP HTRF, 30 min; control for the full effect not named in the record | Potency, µM (titrated, usually from 76.9 µM), for inactives: top-dose activity change, negative = inhibition, most hits filed as inhibitors | hit rate 0.4% among 340,000 | AID 624288, 2012; active = falling curve of any shape with a large fitted effect; inconclusive = falling curve, mostly with a smaller effect; inactive = flat or rising curve; cell line not stated here;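 also: intracellular cAMP measured with PDE inhibitor Ro 20-1724 present during compound exposure; potency is read from the fitted curve at half-maximal effect; % is scaled to controls: 0 for no effect and ±100 for the full control effect; nearly all actives have a fitted effect of over 65% in size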
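HTRF cAMP read-out (cAMP-d2 plus anti-cAMP antibody-K in lysis buffer, 30 min RT). Before lysis, cells are exposed to compounds with […] for 30 min at 37C in DPBS containing Ca/Mg, BSA and Tween 20.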
Menin MLL FP FL: qHTS Assay for Inhibitors Targeting the Menin-MLL Interaction in MLL Related Leukemias: Competition With Fluorescein Labeled MLL-derived Peptide. Fluorescence polarization, fluorescein-MLL peptide displacement from menin. FP activity change, % at 61.4 µM. 290,000 tested, under 10 active. AID 1766, 2009; inconclusive = falling polarisation curve, or a change in total fluorescence; inactive = total fluorescence flat and polarisation flat or rising; no compound was filed as active; the % refers to the polarisation; negative = inhibition;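 also: % of control where 0% means no effect; inhibitors lower the polarisation; unlabelled MLL peptide was the positive control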
ClpP mod: qHTS Assay for Activators of ClpP. Potency, µM (top dose mostly 57.5 µM), for the others: at the highest dose activity change, negative = active. hit rate 1.9% among 340,000. purified B. subtilis ClpP, FRET peptide cleavage, 20 min. ATP-dependent Clp protease proteolytic subunit (Bacillus subtilis (strain 168)), P80244; active = well fitted falling curve with a large enough effect; inconclusive = small, poorly fitted or top-dose-only effect; inactive = no such curve, though single readings can be large or run the other way; also: potency is read from the fitted curve at half-maximal effect; the source files actives as falling curves though it sought activators and does not explain the sign; nearly all actives have a fitted effect of over 65% in size; many hits overshoot -100%
Target sequence (P80244 whole entry, looked up): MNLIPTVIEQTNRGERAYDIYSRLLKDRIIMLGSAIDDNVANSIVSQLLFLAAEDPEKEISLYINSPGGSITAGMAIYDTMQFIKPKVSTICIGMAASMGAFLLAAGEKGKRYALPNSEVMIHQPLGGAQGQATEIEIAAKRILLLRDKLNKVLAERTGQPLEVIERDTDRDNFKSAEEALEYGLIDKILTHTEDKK
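Purified B. subtilis ClpP, 10 microg/mL final in Tris/HCl pH8 with KCl, BSA, glycerol and Tween-20, cleaved an Abz/nitrotyrosine-quenched decapeptide. Fluorescence (ex 320, em 430) was read at 0 and 20 min at room temperature. Delta was normalized to 5.8 microM ADEP and DMSO/no-enzyme controls.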
gsp agonist: qHTS for Agonist of gsp, the Etiologic Mutation Responsible for Fibrous Dysplasia/McCune-Albright Syndrome: qHTS. gsp mutant cells, cAMP HTRF, 30 min; control for the full effect not named in the record. Potency, µM (highest dose often 76.9 µM), inactives show at the top dose activation (cAMP increase), actives largely listed as activators. hit rate 0.13% among 340,000; active = well fitted activation curve with a large enough effect; inconclusive = small, poorly fitted or top-dose-only effect, or another doubt; inactive = no such curve, though single readings can be large or run the other way; cell line not stated here;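 also: phosphodiesterase inhibitor Ro 20-1724 added with compounds to block cAMP breakdown; potency is read from the fitted curve at half-maximal effect; nearly all actives have a fitted effect of over 60% in size; about a fifth of the inactives were tested at one dose only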
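Cells stably selected in G418 were plated at 2000/well, grown 16-24 hr, then given compounds in DMSO with the PDE inhibitor […] (300 uM solution added) for 30 min at 37C; cAMP was read by HTRF.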
Numbers without * were called inactive; u = inconclusive; x = no result given; & = joins results of further samples; [ ] = remark or other dose.

SMILES	TRPML1 blocker	Sfp inh	TRPV1 potentiator	gsp antag	Menin MLL FP FL	ClpP mod	gsp agonist
CNC(=O)c1[nH]cnc1C(=O)N[C@@H](C)C(=O)OC(C)(C)C	-11	1%	1	7%	-2.6	-0.3%	-40%[inhibitor]
COC(=O)c1ccc(NC(=O)Cn2c([N+](=O)[O-])cnc2C)cc1	-14	3%	-4	-5%	-2.1	0.5%	6%
OCC1(Cc2ccccc2C(F)(F)F)CCN(Cc2cccc3cnccc23)CC1	-6	0%	10	3%	2.0	x	3%
O=C(Nc1ccc(N2CCOCC2)cc1)c1cn2ccccc2n1	0	-1%	-5	-3%	1.8	-1.5%	7%
COC(=O)CC(=O)CSc1nc2c(cc1C#N)CCC2	-9	-5%	3	0%	-2.1	77%	21%
COc1cccc(C(=O)N2CCC(C(=O)NCc3ccco3)CC2)c1	-4	-2%	5	-1%	-4.6	x	6%[15.4 µM]
CCN(CC)c1ccc(CNc2nc3ccccc3n2CCN2CCOCC2)cc1	-6	13%	-7	-18%	4.2	x	-38%[inhibitor]
CC(C)C[C@H](NC(=O)c1nc[nH]c1C(=O)NCCCCCNC(=O)OC(C)(C)C)C(=O)OC(C)(C)C	-5	39%[activator]	14	-22%	0.2	2.8%	u
CCn1c(=O)c(C(=O)Nc2ccccc2F)c(O)c2ccccc21	-3	23%	u	-3%	5.4	-4.7%	5%
CCCC(=O)Nc1ccc(C(=O)N/N=C/c2ccc[nH]2)cc1	-8	-13%	-23	-14%	x	1.8%	u
Cc1ccc(SCC(=O)NNC(=O)CNC(=O)c2ccccc2F)cc1	48	x	x	5%	x	x	u
Cc1c(NC(=O)C(C)OC(=O)/C=C/c2ccc3c(c2)OCO3)c(=O)n(-c2ccccc2)n1C (stereo not given)	19	6%	11	4%	5.5	-0.1%	-4%[15.4 µM]
CN(C)S(=O)(=O)c1ccc(-c2cn3ccccc3n2)cc1	13	u	5	17%	1.4	113%	12%
NC(=O)c1c(NC(=O)c2ccccc2)sc2c1CCC2	-5	-3%	0	-12%	0.8	x	-15%
Cc1nn(C)c(C)c1S(=O)(=O)N(CC(=O)N1CCc2ccccc21)c1ccc(C(C)C)cc1	58	9%	0	0%	-1.5	2.6%	-16%
Cc1cccc(NC(=S)N/N=C/c2ccc(Cl)c([N+](=O)[O-])c2)c1	-2	24%	8	-6%	-0.7	1.9%	22%
CN(CC(=O)Nc1cccc(F)c1)C(=O)CCCn1c(=O)oc2ccccc21	6	x	-3	-1%	x	x	-2%[15.4 µM]
COc1ccc(-c2cn3cccnc3n2)cc1NC(=O)C(C)Oc1ccccc1 (stereo not given)	4	0%	11	-12%	x	3.3%	u
O=C(NC1CCCCCC1)c1cc(=O)[nH]c2ccc(S(=O)(=O)N3CCOCC3)cc12	1	10%	4	-36%	0.9	x	4%[15.4 µM]
CC(C)(C)c1ccc(OCC(=O)N(Cc2cccs2)C2CCS(=O)(=O)C2)cc1 (stereo not given)	-2	-8%	-6	-7%	-1.2	-0.7%	-39%[inhibitor]
COc1ccc(-n2c(SCC(=O)Nc3ccc([N+](=O)[O-])cc3OC)nc3ccccc32)cc1	-13	2%	-1	9%	7.2	0.6%	-6%[15.4 µM]
O=C(CSc1nnc(CNC(=O)c2cccs2)o1)NC1CCCCC1	-1	6%	28	3%	-0.4	-2.3%	2%
CC(C)N(C(=O)CSc1nnc(C2CC2)n1C1CC1)c1ccccc1	3	x	-5	6%	x	x	11%[15.4 µM]
COc1ccc(NC(=O)CSc2n[nH]c(-c3ccccc3)n2)cc1S(N)(=O)=O	-12	x	20	-4%	x	1.5%	-35%
O=C(O)CC1SC(=Nc2ccc(O)cc2)NC1=O (stereo not given)	-10	23%	u	11%	-1.8	x	10%
The listing continues:
SMILES	TRPML1 blocker	Sfp inh	TRPV1 potentiator	gsp antag	Menin MLL FP FL	ClpP mod	gsp agonist
FC(F)(F)c1ccc(CN2C[C@@H]3C(c4ccccc4)C4(c5ccccc5)CC3(C4)[C@H]2c2ccccc2)cc1 (stereo not given in full)	x	0%&-8%	28	x	7.9&5.1	x	x
C[C@@H]1CCCCO[C@H](CN(C)Cc2ccc(C(=O)O)cc2)[C@H](C)CN([C@@H](C)CO)C(=O)c2cc(NC(=O)Nc3ccc(C(F)(F)F)cc3)ccc2O1	-7	x	x	x	x	-2.4%	-43%[inhibitor]
Cn1c(CSc2nc3ccccc3s2)nnc1SCC(=O)NCc1cccnc1	-17	x	x	2%	x	-1.4%	22%
COc1ccc(Cn2nnnc2CN2CCCCCC2)cc1	19	6%	-7	u	-2.2	-1.0%	6%
O=c1[nH]c(C2CCN(S(=O)(=O)c3ccccc3)CC2)nc2c1nnn2Cc1c(F)cccc1Cl	-19	-4%	4	4%	x	x	8%[15.4 µM]
CCOC(=O)c1cc2c(=O)n3ccccc3nc2n(CCCOC)c1=NC(=O)c1cccnc1	x	-6%	5	x	-16	x	x
CCc1nnc(NC(=O)CSc2nnnn2C)s1	0	1%	-5	6%	0.2	0.8%	1%
O=C(Nc1ccc(OC(=O)c2ccncc2)cc1)c1ccncc1	-15	26%	1	9%	1.8	-1.6%	-13%
CCn1c(C(C)NC(C)=O)nc2ccccc21 (stereo not given)	0	17%	1	10%	-0.3	0.0%	-4%
O=C(COC(=O)c1ccccc1C(=O)c1ccccc1)Nc1cccc([N+](=O)[O-])c1	-15	0%	11	u	1.4	-1.7%	58%
COc1ccc(NS(=O)(=O)c2cccc(C(=O)N3CCN(C/C=C/c4ccccc4)CC3)c2)cc1	18	x	x	x	x	-4.7%	20%
C=CCN1C(=O)c2ccccc2Sc2ccc(C(=O)NC(C)C)cc21	x	-9%	-6	-3%	-0.4	0.4%	-48%[inhibitor]
Cc1ccc(Cl)cc1NC(=O)CSC(N)=O	-2	u	26	-6%	-2.0	0.9%	-10%
O=C(Nc1ccccc1N1CCCC1)c1ccc(F)c(S(=O)(=O)N2CCOCC2)c1	9	x	-5	-7%	x	-1.6%	16%[15.4 µM]
Cc1cccc(-c2sc(Nc3ccccc3)n[n+]2-c2ccccc2)c1	7	x	u	1%	x	1.1%	x
CCOC(=O)c1ccc(CNC(=O)C(Cc2c[nH]c3ccccc23)NC(C)=O)o1 (stereo not given)	7	16%	8	10%	1.8	1.4%	u
Cc1c(C(=O)N/N=C/c2ccc(-c3ccccc3[N+](=O)[O-])o2)sc(N)c1C#N	4	u	6	-1%	16	9.1%	-18%
CCCCNC(=O)C1CCCN1C(=O)Nc1ccccc1 (stereo not given)	-1	6%	u	4%	1.6	-1.5%	5%
CCN(CC)c1ccc(NC(=O)c2ccc(NC(=O)C3CCCO3)cc2)c(C)c1 (stereo not given)	-4	-3%	-2	-21%	0.0	1.6%	-15%
C=CCNC(=O)CC(=O)N/N=C/c1ccc(C(=O)OC)cc1	-6	5%	5	1%	0.7	-1.1%	4%
O=C(NCc1ccco1)C(c1ccc(F)cc1)N(Cc1cccnc1)C(=O)Cn1nnc2ccccc21 (stereo not given)	7	12%	5	-9%	0.0	-3.3%	-19%
COCCNc1nnc(SCC(=O)NNC(=O)c2ccco2)s1	-9	x	-8	9%	x	0.2%	-40%[inhibitor]
CCOC(=O)c1c(C)[nH]c2ccc(O)cc12	2	11%	4	6%	-0.4	-2.4%	-1%
CC(C)(C)OC(=O)N[C@@H](Cc1ccccc1)C(=O)N[C@@H](CO)[C@H](O)[C@@H]1C[C@@H]1C(=O)NC1CC1	2	10%	25	3%	2.9	-0.2%	10%
CCOC(=O)c1c(NC(=O)Nc2ccc(F)cc2)sc2c1CCN(C)C2	-21	5%	16	3%	4.6	x	22%
Additional structures:
SMILES	TRPML1 blocker	Sfp inh	TRPV1 potentiator	gsp antag	Menin MLL FP FL	ClpP mod	gsp agonist
Cc1cc(C)cc(NC(=S)N(Cc2cccc(Br)c2)CC2CCC(C(=O)O)CC2)c1 (stereo not given)	0	-5%	7	-13%	0.1	0.7%	7%
CCOc1ccc(CCNC(=O)COC(=O)c2cccc(S(=O)(=O)N3CCCCC3)c2)cc1OCC	16	x	1	-4%	x	-1.1%	-4%
O=C(Nc1ccccc1N1CCOCC1)c1ccc2ccccc2n1	25	u	-6	-11%	1.8	-3.0%	-15%
COc1ccc(/C=N/NC(=O)c2ccc(Cl)c(S(N)(=O)=O)c2)cc1OCC(N)=O	3	25%	0	5%	-1.7	x	49%[15.4 µM]
CNC(=O)NC(=O)COc1ccc2oc3c(c2c1)CCCC3	3	29%	2	x	3.0	x	-10%[15.4 µM]
O=C(c1ccco1)N1CCN(S(=O)(=O)c2cccs2)CC1	12	u	-3	4%	8.3	-8.8%	u
Cc1cccc(NC(=S)N2CCCN(c3ncccc3[N+](=O)[O-])CC2)c1	1	-4%	-5	1%	1.5	0.0%	0%[15.4 µM]
CC(C)NS(=O)(=O)c1ccc(NC(=O)CCc2ccccc2)cc1	4	15%	1	10%	1.9	1.2%	13%
CCOCCc1nnc(NC(=O)Cc2ccccc2)s1	-7	15%	0	3%	2.8	-0.5%	-1%
NNC(=O)c1nnn(-c2nonc2N)c1CN1CCc2ccccc2C1	-11	16%	11	3%	1.6	x	-26%
CC1CN(Cc2ccccc2)C(=S)NC1=O (stereo not given)	-9	x	x	12%	x	0.3%	-4%
COc1ccccc1CNC(=O)c1cc2ccccc2oc1=O	-1	2%	-10	-2%	x	5.1%	8%
Cc1ccc(OCC(=O)Nc2ccc(-c3nnc(-c4ccco4)o3)cc2)cc1	-3	6%	4	7%	0.7	28µM*	11%
